Compound activity: PubChem, National Center for Advancing Translational Sciences (NCATS)
gsp agonist: qHTS for Agonist of gsp, the Etiologic Mutation Responsible for Fibrous Dysplasia/McCune-Albright Syndrome: qHTS; gsp mutant cells, cAMP HTRF, 30 min; control for the full effect not named in the record; Potency, µM (titrated, usually from 76.9 µM), for the others: at the top dose activation (cAMP increase), usual class: activators; hit rate 0.13% among 340,000; active = well fitted activation curve with a large enough effect; inconclusive = small, poorly fitted or top-dose-only effect, or another doubt; inactive = no such curve, though single readings can be large or run the other way; cell line not stated here;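 further: phosphodiesterase inhibitor Ro 20-1724 added with compounds to block cAMP breakdown; potency means the concentration at half of the fitted maximal effect; nearly all actives have a fitted effect of over 60% in size; about a fifth of the inactives were tested at one dose only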
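Cells in DMEM/10% FBS with G418 were pretreated with compounds in DMSO plus […] (300 uM stock) for 30 min at 37C. cAMP was measured by HTRF (cAMP-d2 plus anti-cAMP antibody-K) after 30 min at room temperature.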
Menin-MLL FL inh: qHTS Assay for Inhibitors Targeting the Menin-MLL Interaction in MLL Related Leukemias: Competition With Fluorescein Labeled MLL-derived Peptide; Fluorescence polarization, fluorescein-MLL peptide displacement from menin; FP activity change, % at 61.4 µM; 290,000 tested, under 10 active; AID 1766, 2009; inconclusive = falling polarisation curve, or a change in total fluorescence; inactive = total fluorescence flat and polarisation flat or rising; no compound was filed as active; the % refers to the polarisation; negative = inhibition;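 further: % of control where 0% means no effect; inhibitors lower the polarisation; unlabelled MLL peptide was the positive control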
TRPML1 agonist: qHTS for Agonists of the Human Mucolipin Transient Receptor Potential 1 (TRPML1). Mucolipin-1 (Homo sapiens), Q9GZU1. TRPML1-expressing cells, Ca2+ dye fluorescence, FDSS; host cell line not named in the record; reference of the full effect not given here. activation, % (test concentration not listed). hit rate 0.12% among 410,000. AID 624414, 2012; in the data active = activation above about 50%; inconclusive = about 30% to 50%; inactive = below about 30%; further: 0% is about no effect; the text of the record puts the active cut at 80%
Target sequence (Q9GZU1 whole entry, looked up): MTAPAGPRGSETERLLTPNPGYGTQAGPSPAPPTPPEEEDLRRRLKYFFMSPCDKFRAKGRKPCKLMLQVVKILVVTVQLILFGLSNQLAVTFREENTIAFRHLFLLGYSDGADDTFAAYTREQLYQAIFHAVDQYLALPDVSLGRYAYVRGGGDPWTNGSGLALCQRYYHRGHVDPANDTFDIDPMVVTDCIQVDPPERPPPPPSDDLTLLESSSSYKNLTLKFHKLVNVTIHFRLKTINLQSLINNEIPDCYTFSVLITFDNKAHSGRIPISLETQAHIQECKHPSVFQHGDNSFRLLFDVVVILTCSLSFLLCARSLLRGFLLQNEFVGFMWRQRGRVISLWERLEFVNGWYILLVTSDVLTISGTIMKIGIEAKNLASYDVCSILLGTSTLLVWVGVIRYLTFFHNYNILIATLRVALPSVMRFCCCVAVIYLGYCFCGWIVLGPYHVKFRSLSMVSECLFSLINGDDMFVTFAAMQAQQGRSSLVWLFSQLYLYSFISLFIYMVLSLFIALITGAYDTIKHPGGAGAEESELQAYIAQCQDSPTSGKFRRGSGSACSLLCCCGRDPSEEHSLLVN
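In this qHTS format, compounds were pin-transferred onto Ca8-dye-loaded TRPML1-DL cells induced with Tet overnight, and intracellular Ca2+ fluorescence was recorded kinetically for 110 s after a 10 s baseline. A subsequent 4uM final 54-4 (EC80) addition followed by a second 110 s read served as the antagonist phase.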
ClpP mod: qHTS Assay for Activators of ClpP; ATP-dependent Clp protease proteolytic subunit (Bacillus subtilis (strain 168)), P80244; purified B. subtilis ClpP, FRET peptide cleavage, 20 min; Potency, µM (series often up to 57.5 µM), without a hit: top-dose activity change, negative = active; hit rate 1.9% among 340,000; AID 651965, 2013; active = well fitted falling curve with a large enough effect; inconclusive = small, poorly fitted or top-dose-only effect; inactive = no such curve, though single readings can be large or run the other way; further: potency means the concentration at half of the fitted maximal effect; the source files actives as falling curves though it sought activators and does not explain the sign; nearly all actives have a fitted effect of over 65% in size; many hits overshoot -100%
Target sequence (P80244 whole entry, looked up): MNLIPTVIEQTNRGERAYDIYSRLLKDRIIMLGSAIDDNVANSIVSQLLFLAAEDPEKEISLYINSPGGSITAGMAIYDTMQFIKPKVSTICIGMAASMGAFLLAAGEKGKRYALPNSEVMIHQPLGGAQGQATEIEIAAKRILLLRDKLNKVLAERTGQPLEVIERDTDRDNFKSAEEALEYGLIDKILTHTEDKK
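Buffer: 100 mM Tris/HCl pH8, 100 mM KCl, 0.05% low protease BSA, 2.5% glycerol, 0.01% Tween-20. ClpP 10 microg/mL final; 20 min RT; delta FRET normalized to ADEP and DMSO controls.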
TRPML1 blocker: qHTS for Inhibitors of the Human Mucolipin Transient Receptor Potential 1 (TRPML1) | TRPML1-inducible cells, Ca2+ dye fluorescence, FDSS; hits give low values; inhibition of EC80 agonist-evoked calcium signal | activity change, negative = inhibition, % (test concentration not listed) | hit rate 0.02% among 390,000 | AID 624415, 2012; in the data active means activity change below about -50%; inconclusive means about -30% to -50%; inactive means above about -30%;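 further: stimulus is agonist 54-4 at its EC80 concentration; on the % scale 0 is the no-effect control and ±100 the full control effect; compound concentration not given in the record; the text of the record puts the active cut at -80%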
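TRPML1-DL cells, Tet-induced overnight (~16 h, 37 °C) at 1,500 cells/well, were loaded with Ca8 no-wash dye plus quencher for 45-90 min at room temperature. Compounds were pinned during FDSS kinetic reading; agonist 54-4 at EC80 (4 uM final) then added.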
gsp antag: qHTS for Antagonists of gsp, the Etiologic Mutation Responsible for Fibrous Dysplasia/McCune-Albright Syndrome: qHTS | gsp-mutant cells, cAMP HTRF, 30 min; control for the full effect not named in the record | Potency, µM (top dose mostly 76.9 µM), inactives show top-dose activity change, negative = inhibition, most hits filed as inhibitors | hit rate 0.4% among 340,000; active = falling curve of any shape with a large fitted effect; inconclusive = falling curve, mostly with a smaller effect; inactive = flat or rising curve; cell line not stated here;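 further: intracellular cAMP measured with PDE inhibitor Ro 20-1724 present during compound exposure; potency means the concentration at half of the fitted maximal effect; on the % scale 0 is the no-effect control and ±100 the full control effect; nearly all actives have a fitted effect of over 65% in size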
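G418-selected cells were plated in DMEM/10% FBS for 16-24 h at 37C, then treated with compounds plus the PDE inhibitor […] (300 uM solution added) for 30 min at 37C. Intracellular cAMP was measured by HTRF after 30 min lysis at room temperature.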
Starred values were filed as active, the others as inactive; ? = inconclusive; . = not tested or not shown; [ ] = another dose, or the depositor's remark.

Fields – gsp agonist	Menin-MLL FL inh	TRPML1 agonist	ClpP mod	TRPML1 blocker	gsp antag
(1) Cc1noc(C)c1COc1cccc(C(=O)N(C)Cc2cccs2)c1
→ 13%	.	0.4	-0.5%	22	12%
(2) Cc1occc1C(=O)NNC(=O)c1ccccc1Br
→ -24%	5.4	-0.7	0.8%	-2	8%
(3) Cn1c(NNC(=O)c2ccc(C(C)(C)C)cc2)cc(=O)n(C)c1=O
→ -9%	-0.6	-1.1	0.6%	-9	-5%
(4) Cc1cccc(-n2nc3c(c2NC(=O)c2ccc(Br)o2)CSC3)c1
→ 3%	6.4	0.0	-1.9%	19	-10%
(5) O=[N+]([O-])c1ccc2cn(-c3ccccc3)nc2c1
→ -4%	-0.3	1.6	-2.6%	-5	-6%
(6) COc1ccc(-c2cc(C(=O)NCC(c3ccco3)N(C)C)c3ccccc3n2)cc1OC (stereo unspecified)
→ -6%	.	-0.6	-9.0%	-26	-1%
(7) CC(C)(C)OC(=O)N1CCC(c2c(C(=O)NC3CCCCC3)cnn2-c2ccc(F)cc2F)CC1
→ .	.	19	1.6%	23	.
(8) COc1cc(OC)c(NC(=O)C2CC(=O)N(c3ccc4c(c3)OCCO4)C2)cc1Cl (stereo unspecified)
→ 2%	.	1.4	5.5%	-1	-2%
(9) COc1ccc(-c2cc(C(F)(F)F)c(C#N)c(SCC(=O)Nc3nc(C)co3)n2)cc1
→ -18%	3.0	1.2	?	-18	3%
(10) CC1COc2ccccc2N1S(=O)(=O)c1ccccc1 (stereo unspecified)
→ 12%[15.4 µM]	4.8	1.2	.	58	-14%
(11) CN(C)S(=O)(=O)c1ccc(N2CCCC2)c(C(=O)NCC2COc3ccccc3O2)c1 (stereo unspecified)
→ -4%[15.4 µM]	.	?	?	-3	-32%
(12) CC(Sc1ccccc1)C(=O)Nc1cccc(N(C)S(C)(=O)=O)c1 (stereo unspecified)
→ -35%	0.3	0.3	-0.4%	3	3%
(13) Cc1cc(C)c(OCCCCCNCCO)c(C)c1
→ -32%	0.9	-0.3	0.3%	9	2%
(14) Cc1ccc(C(=O)Nc2sc3c(c2C(=O)O)CCCC3)o1
→ 9%	.	0.4	-6.0%	-19	?
(15) CN(CCN1CCOCC1)C(=O)C1CCC(=O)N(Cc2ccc(Cl)cc2)C1 (stereo unspecified)
→ 3%	.	0.0	0.4%	-5	.
(16) CCN(CC)CC(=O)Nn1c(C)nc2c(ncn2-c2ccccc2)c1=O
→ -16%	3.0	-0.8	0.6%	5	1%
(17) CC(C)(C)S(=O)(=O)c1cnc(-c2ccccn2)nc1N
→ 13%[15.4 µM]	1.5	0.2	.	17	-7%
(18) CCN(C(=O)CSc1nncn1-c1ccccc1)c1c(N)n(Cc2ccccc2)c(=O)[nH]c1=O
→ -32%[inhibitor]	3.9	-0.1	-0.9%	-18	4%
(19) O=C(CNC(=O)c1ccccc1F)N/N=C/c1cccnc1
→ -11%	-3.1	-0.3	-1.5%	15	11%
(20) COC(=O)/C=C(\Oc1ccccc1)C1(O)CCCCC1
→ -1%[15.4 µM]	0.9	-0.2	-6.7%	1	12%
(21) COc1cc(C(=O)Nc2ccc(S(=O)(=O)NC(C)C)cc2)cc(OC)c1OC
→ -70%[inhibitor]	-0.6	-0.3	-2.8%	5	1%
(22) CCC(CC)C(=O)Nc1cccc(-c2nc3ccccc3o2)c1
→ 4%	0.0	1.0	?	21	-9%
(23) O=C(O)c1cc(-c2ccc(Cl)c(Cl)c2)n(-c2ccccc2)n1
→ -5%[15.4 µM]	-2.1	0.0	.	7	-4%
(24) COc1ccccc1CN1CCC(CNS(=O)(=O)c2cc(-c3cc(C)no3)ccc2OC)CC1
→ -73%[inhibitor]	-0.5	-0.1	-2.6%	12	11%
(25) Cc1ccsc1C(=O)NCC(c1cccs1)N1CCOCC1 (stereo unspecified)
→ 29%	.	-0.7	-0.6%	8	.
(26) COc1ccc(OC)c(NC(=O)Cn2cc(C(=O)c3ccc(Cl)cc3)c(=O)c3cc(OC)ccc32)c1
→ .	.	0.0	-1.5%	13	.
(27) CC(=O)c1cccc(Nc2nn(-c3ccc(OC(F)(F)F)cc3)nc2C(C)=O)c1
→ .	.	0.5	0.1%	19	.
(28) COc1ccccc1Nc1c2c(nc3ccccc13)CCC2
→ ?	-3.2	-1.0	.	-14	-2%
(29) COc1ccc(S(=O)(=O)N(C)C[C@@H]2OCc3cn(nn3)CCCC(=O)N([C@H](C)CO)C[C@H]2C)cc1
→ .	.	-0.1	0.2%	-17	.
(30) Cc1ccc(N(C)S(=O)(=O)c2c(-c3ccccc3)csc2C(=O)O)cc1
→ .	.	-0.5	-0.6%	0	.

Structural class, those above with bromine (two)
Fields – gsp agonist	Menin-MLL FL inh	TRPML1 agonist	ClpP mod	TRPML1 blocker	gsp antag
(2) Cc1occc1C(=O)NNC(=O)c1ccccc1Br
→ -24%	5.4	-0.7	0.8%	-2	8%
(4) Cc1cccc(-n2nc3c(c2NC(=O)c2ccc(Br)o2)CSC3)c1
→ 3%	6.4	0.0	-1.9%	19	-10%

Going on with the list.
Fields – gsp agonist	Menin-MLL FL inh	TRPML1 agonist	ClpP mod	TRPML1 blocker	gsp antag
(31) COc1ccc(-c2nnc(N3CCCCC3)c3ccccc23)cc1
→ -34%[inhibitor]	2.9	0.1	-8.0%	-9	-8%
(32) Cc1ccccc1Nc1nnc(SCC(=O)c2ccc(O)cc2O)s1
→ -28%	7.2	1.3	.	-24	-13%
(33) COc1cccc2c(C)nc(Nc3nc(CSc4nnc(C)s4)cc(=O)[nH]3)nc12
→ 10%	1.3	-0.2	-8.0%	-8	-1%
(34) Cc1cccc(NC(=O)CSc2nnc(C)n2Cc2ccccc2)c1
→ -8%	1.9	1.0	0.7%	-2	-1%
(35) COc1ccc(N2CCN(C(=S)Nc3ccc(F)cc3)CC2)cc1
→ -1%[15.4 µM]	-0.1	-0.5	-13%	6	3%
(36) COCCCNC(=O)CCn1c(=O)c2ccccc2n(CC(=O)NCCC2=CCCCC2)c1=O
→ -22%	-1.0	-0.2	-3.2%	6	-3%
(37) COc1ccc(C(=O)CN2C(=O)N(c3cc(C)ccc3C)S(=O)(=O)c3ccccc32)cc1
→ .	.	2.6	-0.5%	-7	.
(38) O=C(NCCCN1CCOCC1)C(=O)NCC1OCCN1S(=O)(=O)c1ccc(Br)cc1 (stereo unspecified)
→ -94%[inhibitor]	-2.6	0.0	-0.7%	3	5%
(39) COc1ccccc1NC(=O)CSc1ncc2c(n1)-c1cc(Cl)ccc1N(C)S2(=O)=O
→ .	.	1.0	-6.7%	62	.
(40) CCc1ccc(Oc2coc3cc(OCC(=O)Nc4cc(C)ccc4C)ccc3c2=O)cc1
→ -6%	4.5	-0.4	.	-13	19%
(41) Cc1ccc2[nH]c(=O)c(CN(C)C(=O)c3ccccn3)cc2c1
→ -1%	5.1	4.8	?	21	-1%[15.4 µM]
(42) COc1ccc2[nH]c(=O)c(C(c3nnnn3CC3CCCO3)N3CCc4ccccc4C3)cc2c1 (stereo unspecified)
→ 0%	2.3	-0.4	32µM*	-2	1%
(43) S=c1nc(-c2ccccc2)n(-c2ccccc2)[nH]1
→ 26%[15.4 µM]	-3.5	-0.6	0.2%	-1	-9%
(44) Oc1ccccc1C(=S)N1CCCC1
→ 26%	-5.3	0.2	-1.0%	13	1%
(45) CCOC(=O)c1c(N)sc(-c2ccccc2)c1C
→ -17%	4.7	-0.2	-0.7%	-8	-5%
(46) O=C(CCc1nc(-c2ccc(Cl)cc2)no1)NC1CCCCC1
→ -1%[15.4 µM]	-3.6	-0.9	0.1%	23	8%
(47) CCOC(=O)C1CCN(S(=O)(=O)c2c(C)[nH]c(C)c2C(=O)N2CCCC2)CC1
→ -17%	-5.7	-0.4	0.7%	29	15%
(48) Cc1ccccc1C(=O)N/N=C/c1ccccn1
→ 2%	3.3	1.3	-1.4%	-5	0%
(49) S=C1CCSc2ccc(Cl)cc2N1
→ -4%[15.4 µM]	4.0	1.3	1.3%	6	12%
(50) O=C(C(=O)N1CCN(c2ccc(F)cc2)CC1)c1c[nH]c2ccccc12
→ 7%[15.4 µM]	1.0	0.1	-2.1%	-8	9%
(51) Nc1nc(SCC(=O)NCCOCCO)nc2sc3c(c12)CCCC3
→ -4%[15.4 µM]	-3.3	0.3	.	-1	.
(52) COc1ccccc1C(=O)Nc1ccc(NC(=O)c2ccco2)cn1
→ 25%[15.4 µM]	-3.1	0.1	.	-2	-9%
(53) O=C(CN1C(=O)c2cccnc2Oc2ccc(Cl)cc21)Nc1ccccc1F
→ 24%	20	2.0	-3.0%	31	-27%
(54) O=C(NCCCn1ccnc1)c1ccc(Cl)s1
→ 11%	.	-0.7	-0.4%	-3	19%
(55) Nc1ccc(C(=O)OCc2nc3c(ccc4ccccc43)[nH]2)cc1
→ -12%	0.9	-1.0	-4.3%	-6	13%
(56) Cc1ccc2nc(C)cc(N/N=C/c3cccnc3)c2c1
→ 2%[15.4 µM]	-3.1	1.4	.	-27	3%
(57) S=C(Nc1ccc2nc(-c3ccccn3)c(-c3ccccn3)nc2c1)N1CCCCC1
→ ?	-6.2	14	.	-19	-10%
(58) O=S1(=O)CCN2C=C(Cl)C=C(Cl)C2=N1
→ -23%[15.4 µM]	-1.7	0.1	0.6%	-1	4%
(59) CCOc1ccc(S(=O)(=O)Nc2cc(NS(=O)(=O)c3ccc(OCC)cc3)cc(C(=O)O)c2)cc1
→ -4%	.	0.5	-5.0%	8	-1%
(60) Cn1cc(CCNC(=O)c2ccc3nc(Cc4ccccc4F)oc3c2)cn1
→ -38%[inhibitor]	1.5	1.7	-2.3%	-4	-1%
(61) CC1=NN(Cc2cc(C(C)(C)C)c(O)c(C(C)(C)C)c2)C(=O)C1
→ 0%	-0.6	0.7	-0.5%	14	-13%
